# Marburg entry inh – inhibitors of Marburg virus binding or cell entry; Marburg virus pseudotyped entry inhibition, cell reporter; control for the full effect not named in the record; about a third of the inactives were read at about 46 µM; Potency, µM (doses to about 37.8 µM), for inactives: top-dose activity change, negative = inhibition, most hits filed as inhibitors; 300,000 tested, 1.8% active; AID 540276; active = well fitted inhibition curve with a large enough effect; inconclusive = small, poorly fitted or top-dose-only effect, or effect the other way; inactive = flat fitted curve, though single readings scatter; tested in HEK293 cells; about a fifth of its hits are not listed in these tables; note: % is set by controls: 0 for no effect and ±100 for the full control effect; luciferase read-out
# RE007 growth inh – less growth of the S. pombe RE007 Vpr strain. S. pombe RE007 Vpr strain, BacTiter-Glo ATP luminescence, 24 h; control for the full effect not named in the record. Potency, µM (highest dose often 92.2 µM), for the others: at the top dose activity change, negative = less growth. 360,000 tested, 0.21% active. AID 651644; active = well fitted falling curve with a large enough effect; inconclusive = small, poorly fitted or top-dose-only effect; inactive = no such curve, though single readings can be large or run the other way;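 note: % is set by controls: 0 for no effect and ±100 for the full control effect; nearly all actives have a fitted effect of over 50% in size; the assay follows cell death caused by Vpr and the record does not say whether a fall means rescue or toxicity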
#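 Fission yeast RE007 carrying one integrated HIV-1 vpr copy, seeded at OD 0.01 in PMG+AL medium with 23 nL pinned compound. Grown 24 h at 30 degrees; viability read by BacTiter-Glo luminescence after 5 min.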
# Cruzain inh noDet – cruzain (T. cruzi) inhibition without detergent; P25779; purified cruzain, Z-FR-AMC fluorescence, no detergent; AID 1476; 200,000 tested, 2.3% active; Potency, µM, inactives show max response, negative = inhibition, actives largely listed as inhibitors;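 note: plate controls were enzyme without inhibitor for no effect and buffer without enzyme for full effect; nearly all actives have a fitted effect of over 40% in size; top concentration of the series not given in the record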
# Target sequence (P25779 123-467 limits assumed): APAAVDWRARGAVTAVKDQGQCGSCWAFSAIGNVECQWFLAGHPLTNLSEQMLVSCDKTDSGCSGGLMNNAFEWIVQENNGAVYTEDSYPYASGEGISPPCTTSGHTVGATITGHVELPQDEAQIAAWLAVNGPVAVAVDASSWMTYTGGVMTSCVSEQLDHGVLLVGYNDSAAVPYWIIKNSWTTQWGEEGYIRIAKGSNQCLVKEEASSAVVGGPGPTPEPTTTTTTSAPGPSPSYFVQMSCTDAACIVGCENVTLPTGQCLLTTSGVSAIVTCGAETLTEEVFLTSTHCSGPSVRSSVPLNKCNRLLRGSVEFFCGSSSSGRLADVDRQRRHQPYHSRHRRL
#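 Purified cruzain at 1.5 nM, pre-incubated 15 min with compound at room temperature in 100 mM sodium acetate pH 5.5, 5 mM DTT, 0.00005% Triton X-100. Reaction started with 2 uM Z-FR-AMC; AMC fluorescence increase over 60 s gives rate.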
# SARS PLpro yeast – inhibitors of SARS-CoV papain-like protease in yeast; S. cerevisiae expressing SARS-CoV PLpro, growth rescue; control for the full effect not named in the record; Potency, µM (titrated, usually from 32.9 µM), for inactives: at the highest dose activity, positive = growth rescue; AID 485353; 330,000 tested, 0.19% active; active means well fitted rising curve with a large enough effect; inconclusive means small, poorly fitted or top-dose-only effect; inactive means no such curve, though single readings can be large or run the other way; note: 0% is about no effect; nearly all actives have a fitted effect of over 55% in size; growth read by luminescence after 48 h
# NS1 function inh – blocks influenza NS1 protein function; S. cerevisiae slowed by influenza A NS1, growth recovery by OD600; Potency, µM (series often up to 46.1 µM), inactives show at the top dose activity, positive = more growth; 270,000 tested, 0.4% active; active means well fitted rising curve with a large enough effect; inconclusive means small, poorly fitted or top-dose-only effect; inactive means no such curve, though single readings can be large or run the other way; note: nearly all actives have a fitted effect of over 50% in size
#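 In this qHTS, NS1 from influenza A is expressed in budding yeast, where it slows growth. Cells are switched from glucose to 2% galactose medium (pH 6.0, -URA), treated with compound, and growth recovery is read at OD600.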
# Lassa entry inh – Lassa virus entry inhibition; Potency, µM (titrated, usually from 37.9 µM), inactives show at the highest dose activity change, negative = inhibition, actives largely listed as inhibitors; 300,000 tested, 1.2% active; Lassa virus pseudotype entry inhibition, cell reporter; control for the full effect not named in the record; active means well fitted inhibition curve with a large enough effect; inconclusive means small, poorly fitted or top-dose-only effect, or effect the other way; inactive means flat fitted curve, though single readings scatter; tested in HEK293 cells; note: % is set by controls: 0 for no effect and ±100 for the full control effect; nearly all actives have a fitted effect of over 50% in size; luciferase read-out
# StopGo reporter – lowers the luciferase signal of an FMDV 2A StopGo reporter. Potency, µM (series often up to 57.9 µM), inactives show at the top dose signal change, negative = less light. 410,000 tested, 1.2% active. AID 1159524. human cells with a luciferase reporter of 2A StopGo recoding; control for the full effect not named in the record; active = well fitted falling curve with a large enough effect; inconclusive = small, poorly fitted or top-dose-only effect; inactive = no such curve, though single readings can be large or run the other way; tested in HEK293T cells; note: % is set by controls: 0 for no effect and ±100 for the full control effect; nearly all actives have a fitted effect of over 45% in size; luciferase light after 4 h
# Cruzain inh Det – inhibitors of Trypanosoma cruzi cruzain with detergent; purified cruzain, Z-FR-AMC fluorescence, 0.01% Triton; 200,000 tested, 0.43% active; P25779; Potency, µM, for inactives: max response, negative = inhibition, actives largely listed as inhibitors; AID 1478;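 note: plate controls were neutral wells for no effect and buffer without enzyme for full effect; nearly all actives have a fitted effect of over 40% in size; top concentration of the series not given in the record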
#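 Purified cruzain (1.5 nM final) was preincubated with compounds for 15 min at room temperature in 100 mM sodium acetate pH 5.5, 5 mM DTT, 0.01% Triton X-100. Reaction started with 2 uM Z-FR-AMC; AMC fluorescence change over 60 s gave activity.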
# Starred values were filed as active, the others as inactive; ? = inconclusive; · = no result given; [ ] = remark or other dose. Unless noted, calls come from the whole dose curve; as a rule, active = well fitted curve in the direction sought with a large enough effect; inconclusive = small, poorly fitted or top-dose-only effect, or another doubt; inactive = no such curve, though single readings can be large; an effect the other way counts as inactive or inconclusive. Potency is the fitted concentration of half-maximal effect.
Structure	Marburg entry inh	RE007 growth inh	Cruzain inh noDet	SARS PLpro yeast	NS1 function inh	Lassa entry inh	StopGo reporter	Cruzain inh Det
COc1ccc(S(=O)(=O)N2CC3CCCN3c3cc(C(F)(F)F)ccc32)cc1 (stereo not given)	?	-15%	-18%	-30%	-75%	?	?	0.0%
CC(O)C(NS(=O)(=O)c1ccc(Cl)cc1)C(=O)OCc1nnc(-c2ccccc2)o1 (stereo not given)	19%	-2%	11%	0%	-2%	2%	0%	0.5%
Cc1ccc(C)c(NC(=O)COC(=O)c2cccc(S(=O)(=O)N3CCCCC3)c2)c1	10%	21%	·	1%	·	12%	-16%	·
CCOC(=O)c1cnc(/N=C/N(C)C)s1	23%[46.1 µM]	2%	·	-1%	·	21%	39%[activator]	·
COc1ccccc1NC(=O)CN1CCOCC1	·	12%	·	-6%	12%	·	-14%	·
COc1ccc(Cl)cc1S(=O)(=O)Nc1cccc(-c2ccc(N3CCCC3)nn2)c1	·	·	0%	·	·	?	36%[activator]	-0.1%
CCn1c(=O)n(Cc2ccco2)c(=N)c2c3c(sc21)COC(C)(C)C3	13%	8%	0%	-6%	-5%	17%	8%	-1.3%
CC(=O)C1=C(c2ccccc2)NC(=S)NC1c1cc(Cl)c(OC(C)C)c(Cl)c1 (stereo not given)	?	3%	?	-2%	29%	?	-19%	-4.8%
O=c1c2cc3c(cc2[nH]c(=S)n1CCN1CCOCC1)OCO3	0%	7%	2%	4%	4%	11%	19%	-0.6%
O=c1c2cn[nH]c2nc(SCc2cc(=O)n3cc(Br)ccc3n2)n1-c1ccc(Br)cc1	·	-5%	·	-4%	·	4%	-24%	·
O=C(Nc1ccc(Oc2c(F)c(F)c(F)c(F)c2F)cc1)OC1CCN2Cc3ccccc3N=C12 (stereo not given)	?	?	·	-1%	-1%	?	20µM*	·
COc1cccc2sc(Nc3nnc(-c4ccc(F)cc4)o3)nc12	·	-24%	?	-11%	-31%	·	14%	-15%
Cc1ccc(OCC(=O)N/N=C\c2cn(C)c3ccccc23)c([N+](=O)[O-])c1	?	-8%	?	6%	8%	?	-14%	-5.3%
CCOC(=O)C1CCN(C(=O)Cn2cc(C(=O)c3ccco3)c3ccccc32)CC1	0%	13%	-10%	·	-6%	0%	-26%	-5.5%
Cc1c(NC(=O)C(c2ccccc2)c2ccccc2)cccc1C(=O)O	·	3%	·	0%	-3%	·	-2%	·
O=C(CCc1ccccc1)N1C[C@H]2C[C@@H](C1)c1cccc(=O)n1C2	·	-10%	·	5%	18%	·	-4%	·
COc1cccc(COC(=O)C2CCN(S(=O)(=O)c3ccc(C)cc3C)CC2)c1OC	-5%	-3%	·	-1%	·	-10%	-16%	·
CC(=O)Nc1ccc(OS(=O)(=O)c2ccccc2C)cc1	?	0%	·	-1%	-2%	0%	27%	·
CCNC(=S)NNC(=O)c1cc(C)on1	3%	20%	-2%	3%	12%	17%	-4%	9.3%
Cc1ccc(-c2nc(C3CCN(S(C)(=O)=O)CC3)no2)cc1	?	1%	6%	-7%	-16%	26%	25%	-0.2%
O=C(CNC(=O)c1ccc(Cl)cc1Cl)OCc1nnc(-c2ccccc2)o1	3%	-14%	·	1%	·	8%	-1%	·
O=C(NC1CC(=O)N(c2ccc(F)cc2)C1)c1ccc2c(c1)OCO2 (stereo not given)	·	·	-5%	·	·	15%[46.1 µM]	-6%	0.1%
CC(=O)c1cccc(NC(=O)COC(=O)COc2c(Cl)cc(Cl)c3ccc(C)nc23)c1	?	-13%	16%	5%	1%	0%	-21%	-7.0%
CNC(=O)c1cc(S(=O)(=O)Nc2ccc3c(c2)OCCO3)ccc1C	-23%	8%	·	-10%	10%	8%	-6%	·
Cc1ccc(C(=O)Nc2ccc(O)c(C(=O)O)c2)o1	-11%	7%	-3%	-6%	-7%[9.22 µM]	-2%	19%	-4.5%

# (more compounds)
Structure	Marburg entry inh	RE007 growth inh	Cruzain inh noDet	SARS PLpro yeast	NS1 function inh	Lassa entry inh	StopGo reporter	Cruzain inh Det
CCc1ccccc1OCC(=O)NC1CCCC1	-20%	1%	-5%	-4%	?	3%	0%	-3.6%
O=C(CSc1ccc2c(c1)OCCO2)NCC1CCCO1 (stereo not given)	16%	6%	2%	8%	10%	-2%	0%	-0.7%
O=C1c2cccc3cccc(c23)C(=O)N1c1ccc(O)cc1	·	18%	·	7%	-6%	·	-7%	·
NS(=O)(=O)c1ccc(NS(=O)(=O)c2ccc(Br)cc2)cc1	?	16%	·	3%	-5%	9%	-6%	·
CS(=O)(=O)NC1CCN(Cc2ccccc2)CC1	4%	-6%	-1%	3%	6%	9%	22%	-0.9%
O=C1C(Cl)=C(N2CCOCC2)C(=O)N1c1ccccc1	-17%	8%	-2%	0%	1%	-5%	·	-29%
Cc1cc(C)n(-c2nc(NCCC(C)C)c3c4c(sc3n2)COC(C)(C)C4)n1	?	-21%	23%	-7%	6%	9%	0%	-9.3%
Cc1occc1C(=O)NNC(=S)Nc1ccccc1	8%	-1%	-3%	-3%	6%	18%	122%[activator]	-0.2%
CN(C)S(=O)(=O)c1cccc(NC(=O)CCSc2ccc(Cl)cc2)c1	?	·	15%	7%	-25%	10µM*	0%	-4.4%
CCC1CCC2(CC1)NC(=O)N(CC(=O)N1CCc3ccccc31)C2=O (stereo not given)	0%	8%	·	-1%	·	-12%	-18%	·
CCc1nc2ccccc2c(C(=O)OC2CCOC2=O)c1C (stereo not given)	3%	5%	7%	-6%	-14%	28%	-10%	-1.1%
O=C(NCC1CCCO1)c1sc2ccccc2c1Cl (stereo not given)	5%	?	-6%	-6%	-12%	?	50%[activator]	-4.2%
Nc1c(C(=O)c2ccc(Cl)cc2)sc2c1c(=O)[nH]c(=O)n2-c1ccccc1	-20%	23%	-2%	-15%	14%	-27%	-14%	-2.7%
COc1c2c(cc3c1OCO3)CCN(C)C2	·	3%[18.4 µM]	7%	·	·	·	-8%	-6.2%
CC(C)CNC(=O)CC(NCC(C)C)C(=O)O (stereo not given)	-2%	·	-7%	-10%	2%	8%	·	-2.5%
CCOC(=O)N1CCc2c(sc3nc4n(c(=O)c23)N=C(C)CS4)C1	?	0%	5%	-7%	-5%	2%	?	-2.9%
CCOC(=O)C1=C(C)OC(N)=C(C#N)C1c1c(C)nn(-c2ccccc2)c1Cl (stereo not given)	?	18%	?	-3%	-14%	-19%	-22%	-7.7%
Cc1ccc(NS(=O)(=O)c2cc(-c3cc(C)no3)ccc2C(C)C)nc1	·	-4%	·	4%	-5%	·	55%[activator]	·
O=C(COc1ccccc1)NS(=O)(=O)c1ccccc1	10%[46.1 µM]	-1%	·	1%	0%	7%[46.1 µM]	0%	·
O=C(Nc1ccc(F)cc1)c1cccc2c1C(=O)N(CC1CCCO1)C2 (stereo not given)	·	5%	·	-2%	-11%	·	-27%	·
CN(CC(=O)NCc1ccco1)S(=O)(=O)c1ccc(F)cc1	5%[46.1 µM]	-15%	·	2%	6%	?	4%	·
COc1ccc(CNC(=O)CN(C(=O)CCC(=O)Nc2ccccn2)c2ccc3c(c2)OCO3)cc1	5%[46.1 µM]	-7%	·	0%	-3%	?	74%[activator]	·
O=C(Nc1ccncc1)c1cccc(F)c1	-11%	3%	8%	-2%	0%	9%	4%	1.7%
O=C(Nc1ccc(N2CCOCC2)cc1)C1CC(=O)N(c2ccc(F)cc2)C1 (stereo not given)	-6%[46.1 µM]	-11%	·	1%	3%	3%[46.1 µM]	-3%	·
CCCCOc1ccc(S(=O)(=O)NCc2csc(C)n2)cc1	-27%	-5%	-12%	0%	-1%	-4%	·	-1.3%

# Later entries:
Structure	Marburg entry inh	RE007 growth inh	Cruzain inh noDet	SARS PLpro yeast	NS1 function inh	Lassa entry inh	StopGo reporter	Cruzain inh Det
O=C(c1ccc(S(=O)(=O)N2CCCC2)cc1)N1CCN(c2ccccc2F)CC1	2%	4%	·	1%	4%	-12%	-16%	·
CCC(=O)c1ccc(OCC(=O)OC(C)C(=O)Nc2c(C)n(C)n(-c3ccccc3)c2=O)cc1 (stereo not given)	0%[46.1 µM]	7%	·	·	·	-1%	-21%	·
Cc1onc(-c2ccccc2Cl)c1C(=O)N1CCCC1	3%[46.1 µM]	-22%	·	14%	-2%	?	7%	·
O=C1C=C(NCCc2cc(Br)c(O)c(Br)c2)C(=O)c2ncccc21	?	3%	-7%	·	-47%	2.8µM*	10µM*	-6.9%
COc1cc2c(cc1NC(=O)CN(C)Cc1nc3ccccc3c(=O)[nH]1)oc1ccccc12	23µM*	18%	?	-2%	-30%	?	2%	-5.6%
N#Cc1ccc(NC(=O)Cn2cnc(S(=O)(=O)N3CCCCC3)c2)cc1	·	3%	·	-1%	-9%	·	-22%	·
COc1ccc(CCNS(=O)(=O)c2cccc([N+](=O)[O-])c2)cc1	11%[46.1 µM]	-4%	·	-1%	-11%	7%[46.1 µM]	10%	·
Cc1ccccc1NC(=O)NCCCN1CCN(C)CC1	·	2%	·	0%	5%	·	-5%	·
Cc1n[nH]c(C)c1S(=O)(=O)N(CC(=O)NC(C)c1ccccc1)c1ccc(C(C)C)cc1 (stereo not given)	-29%[46.1 µM]	·	?	·	·	?	-8%	-6.3%
Cc1occc1C(=O)N1CCN(c2ccccc2)CC1	?	3%	5%	8%	10%	-14%	-13%	-25%
CC(NC(=O)C1CCCCC1)C(c1cccs1)N1CCN(C)CC1 (stereo not given)	·	-4%	·	2%	4%	·	-3%	·
Cc1ccc(CN2C(=O)CSc3ccc(C(=O)NCCN4CCOCC4)cc32)cc1	7%	-8%	-13%	-1%	3%	14%	0%	-4.5%
COc1ccc(-c2coc3c(CN4CCCCC4C)c(O)ccc3c2=O)cc1 (stereo not given)	·	-3%	·	-4%	-2%	·	0%	·
Cc1ccc2nc(SCC(=O)NCc3ccccc3Cl)nc(=O)n2c1	-1%	6%	·	-2%	·	6%	-13%	·

# Screening data as filed in PubChem.
